# Assay outcomes as filed in PubChem.
# PMP22 txn = modulators of PMP22 gene transcription in S16 Schwann cells; S16 Pmp22-F2sN Schwann cells (luciferase reporters placed in the Pmp22 gene), FLuc/NLuc coincidence luminescence, 24 h; Potency, µM (series often up to 57.5 µM), for the others: at the top dose activity change, negative = inhibition, most hits filed as inhibitors; hit rate 2% among 43,000; AID 1508649; active = clear falling dose curves in both reporters; inconclusive = both reporters move, but less clearly or upward; inactive = either reporter flat; the % is the NLuc reporter signal; note: % is set by controls: 0 for no effect and ±100 for the full control effect; some results filed as inactive show a strong effect at the top dose
#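 Luminescent read-out of sequential FLuc and NLuc signals from a reporter embedded in the Pmp22 3' UTR of S16 Schwann cells, taken after 24 h compound exposure at 37C; compounds reducing both signals score as inhibitors of expression.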
# HTT prom inh = inhibits huntingtin promoter activity. Potency, µM (series often up to 57.5 µM), inactives show top-dose activity change, negative = inhibition, most hits filed as inhibitors. hit rate 0.93% among 48,000. HEK293 HTT promoter firefly luciferase reporter (activity 0% = vehicle and -100% = no light), 24 h. AID 1508623; active = well fitted inhibition curve with a large enough effect; inconclusive = small, poorly fitted or top-dose-only effect; inactive = no such curve, though single readings can be large or run the other way; note: nearly all actives have a fitted effect of over 50% in size
#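 Firefly luciferase signal from promoter-reporter HEK293 cells was scaled between vehicle (0%) and zero RLU (-100%). Compounds were tested at final concentrations of up to 57.5 uM over 24 h at 37 degrees C. PTC124 at 50 uM final served as control inhibitor.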
# Numbers without * were called inactive; ? = inconclusive; / = no result given; & = joins results of further samples; [ ] = dose if it differs, or a comment. Potency is the fitted concentration of half-maximal effect.
SMILES	PMP22 txn	HTT prom inh
CCCCN(C)C(=O)Cn1cnc2sc(C)c(S(=O)(=O)N3CCN(c4ccccc4OC)CC3)c2c1=O	-23%	0%
CCN(C(=O)CSc1nc2ncccc2[nH]1)c1ccc(C(C)C)cc1	-3%	?
CCC(C)NC(=O)c1c(-c2ccccc2)c(-c2ccccc2)nn(C)c1=O (centres undefined)	-2%	-8%
O=C(COc1ccccc1Cl)Nc1cc(-c2ccccc2F)nn1-c1ccccc1	2%	3%
CC1CCN(c2ncnc3c2nnn3C)CC1	?	1%
CCOc1ccc(CCNC(=O)Cn2ncn3c(cc4ccccc43)c2=O)cc1OCC	?	-5%
COc1ccc(CNC(=O)C2CCN(C(=O)N3CC(C)Oc4ccc(C)cc43)CC2)cc1 (centres undefined)	-7%	-30%
CC1=C(C(=O)Nc2ccccc2)C(c2ccccc2)n2nc(-c3ccco3)nc2N1 (centres undefined)	1%	-11%
CCc1nonc1NC(=O)c1oc2cc(C)c(C)cc2c1C	-16%	38%[activator]
COc1ccc(S(=O)(=O)NCc2cccn2Cc2cccc(C)c2)cc1Cl	30%	0%
C=C(c1ccc(C(=O)O)cc1)c1cc2c(cc1C)C(C)(C)CCC2(C)C	/	-3%&-16%
CCCCCCCCCCCCCCCCCCOCC(O)CO (centres undefined)	/	17%
C#CCN1C(=O)C(O)(CC(=O)c2ccc(OC)c(OC)c2)c2cc(Br)ccc21 (centres undefined)	?	-18%
CCN(CC)C(=O)Cn1c(=O)n(Cc2ccc(C(=O)NCCCOC)cc2)c(=O)c2ccccc21	6%	-11%
CC1=C(C(=O)Nc2cc(C)cc(C)c2)C2(CCCCC2)OC1=O	0%	-22%
CCOC(=O)c1ccc2ncc3c(-c4ccccc4)nn(-c4ccc(F)c(Cl)c4)c3c2c1	?	-7%
CCN1CCOC(=O)C1CC(=O)Nc1ccccc1C(F)(F)F (centres undefined)	?	-1%
COc1cc(C2CC(=O)Nc3cc4c(cc32)OCCO4)cc(Br)c1OC (centres undefined)	0.67µM*	?
CCOC(=O)N1CCN(C(=O)CN(c2cccc(Cl)c2C)S(=O)(=O)c2ccc(C)cc2)CC1	-27%	-33%
Cc1ccc(NC(=O)C2CCN(c3nc4ccccc4[nH]3)CC2)cc1Cl	6%	-3%
Cc1cccc(NC(=O)CN2C(=O)C(c3ccc(F)cc3)=NC23CCCCCC3)c1C	?	?
CCN(CC)CCCNC(=O)c1ccc2c(c1)N(Cc1c(F)cccc1Cl)C(=O)c1ccccc1S2	?	?
COCCNc1ccc(-c2nc(-c3ccccn3)no2)cc1[N+](=O)[O-]	2%	54%[activator]
O=C(CSc1nc2c([nH]c3ccccc32)c(=O)n1-c1ccccc1)c1ccc(Cl)cc1	-18%	-4%
Cc1cc(C)c(Cn2c3ccccc3c3cnn(CC(=O)N4CCCCCC4)c(=O)c32)c(C)c1	?	-13%
O=C(NCCc1ccc(Cl)cc1)c1cc(-c2ccccc2)n[nH]1	-11%	-14%
CCCN(CCC)CC(O)Cn1cc(/C=C/C(=O)c2ccc(OCC)cc2)c2ccccc21 (centres undefined)	?	?
CCOc1ccc(NC(=O)NCCN2CCN(c3cc(Cl)ccc3C)CC2)cc1	?	?
Cc1cc(NC(=O)C2CCCN(S(=O)(=O)c3cn(C)cn3)C2)ccc1Br (centres undefined)	7%	-28%
CCN(C(=O)COc1cc(=O)n(C)c2ccccc12)c1cccc(C(F)(F)F)c1	?	-21%
COc1ccc(CN(CCN(C)C)c2ncccn2)cc1	/	3%
CCc1ccc(CNC(=O)C2COc3ccccc3C2)cc1 (centres undefined)	-8%	13%
Cc1ccc(CCNC(=O)c2ccc(Nc3nc4ccccc4n4nnnc34)cc2)cc1	?	-6%
Cc1ccc(-c2nc(CS(=O)(=O)CC(=O)Nc3cc(C)ccc3C)c(C)o2)cc1	?	?
CC1CCN(S(=O)(=O)c2ccc3nc(NCc4ccc(N(C)C)cc4)ccc3c2)CC1	?	?
CC(C=CC1=C(C)CCCC1(C)C)=CC=CC(C)=CC(=O)Nc1ccc(O)cc1	/	?
Cc1ccc(N2CCN(C(=O)C3CCN(S(=O)(=O)c4ccc5c(c4)oc(=O)n5C)CC3)CC2C)cc1 (centres undefined)	?	?
Cc1ccc(C(=O)Oc2c(S(=O)(=O)c3ccccc3)c(C)nn2-c2ccccc2)cc1	-14%	-26%
CC1CN(C(=O)N2CCC(C(=O)NCCCc3ccccc3)CC2)c2ccccc2O1 (centres undefined)	-54%	-30%
CC=CC[C@@H](C)C(=O)[C@H]1C(=O)N[C@@H](C(C)C)C(=O)N(C)CC(=O)N(C)[C@@H](CC(C)C)C(=O)N[C@@H](C(C)C)C(=O)N(C)[C@@H](CC(C)C)C(=O)N[C@@H](C)C(=O)N[C@H](C)C(=O)N(C)[C@@H](CC(C)C)C(=O)N(C)[C@@H](CC(C)C)C(=O)N(C)[C@@H](C(C)C)C(=O)N1C	/	16%
O=C1CC(c2ccc(Cl)cc2)CC(=O)N1	/	11%
COc1ccc(C(=O)Nc2ccc3nc(N4CCCCC4)cc(C)c3c2)c(OC)c1	-13%	1%
CCCSc1nnc2n(-c3ccc(OC)cc3)c(=O)c3c4c(sc3n12)COC(C(C)C)C4 (centres undefined)	?	4%
COC(=O)c1ccc(NS(=O)(=O)c2ccc3c(c2)n(C)c(=O)c(=O)n3C)cc1	-2%	-5%
O=C(COCc1cc(-c2ccc(F)cc2)on1)Nc1cc(Cl)ccc1O	?	-13%

# Profiles, looked up by structure:
# CC1CCN(c2ncnc3c2nnn3C)CC1 is entered as PMP22 txn = ?; HTT prom inh = 1%
# Cc1cc(NC(=O)C2CCCN(S(=O)(=O)c3cn(C)cn3)C2)ccc1Br (centres undefined) is entered as PMP22 txn = 7%; HTT prom inh = -28%

# Quoted at random: 3 compounds from above.
SMILES	PMP22 txn	HTT prom inh
Cc1ccc(-c2nc(CS(=O)(=O)CC(=O)Nc3cc(C)ccc3C)c(C)o2)cc1	?	?
CC1=C(C(=O)Nc2cc(C)cc(C)c2)C2(CCCCC2)OC1=O	0%	-22%
Cc1cccc(NC(=O)CN2C(=O)C(c3ccc(F)cc3)=NC23CCCCCC3)c1C	?	?

# Following part.
SMILES	PMP22 txn	HTT prom inh
CCn1c(CN2CCCCC2)nc2cc(NC(=O)c3ccccc3[N+](=O)[O-])ccc21	?	-23%
CCOC(=O)c1c(C)[nH]c(C)c1S(=O)(=O)N(C)CC(=O)N1CCN(c2ccccc2)CC1	-18%	-15%
Cc1cc(OCC(=O)N(Cc2sccc2C)C2CCS(=O)(=O)C2)ccc1Cl (centres undefined)	?	-29%
CCOc1ccc(-c2cc(C(=O)NCc3ccc(OC)cc3)c3c(-c4ccc(F)cc4)[nH]nc3n2)cc1	7%	-12%
COc1ccc(N2C(=O)CSC23C(=O)N(CC(=O)NCc2ccccc2)c2ccccc23)cc1 (centres undefined)	4%	-6%
COc1cc(/C=C(\C#N)c2nc3ccccc3[nH]2)ccc1OCc1cccc(C(F)(F)F)c1	?	-29%
COc1ccc(Nc2c3c(nc4ccc(NC(=O)c5ccc(F)cc5)cc24)CCCC3)cc1OC	?	-23%
CCCN1CCN(CCCNC(=O)c2cc3c(=O)[nH]c4ccccc4c3s2)CC1	-18%	-14%
CCOc1ccc(CNC(=O)c2cc3cc(S(=O)(=O)N4CCCCC4)ccc3n2C)cc1	?	?
CC(C)(C)C1CCc2c(sc(NC(=O)C3c4ccccc4Oc4ccccc43)c2C(N)=O)C1 (centres undefined)	0%	-14%
CC1CCN(c2nc(-c3ccc(C(C)(C)C)cc3)nc3ccccc23)CC1	?	-39%
Cc1nc(-c2cccnc2)sc1CCNS(=O)(=O)c1ccc(F)cc1	?	-11%
COc1ccc(CNC(=O)CCS(=O)(=O)c2cc3c4c(c2)CCN4C(=O)CC3)cc1	-13%	-12%
CCCCOc1cccc(C(=O)N(Cc2cccs2)c2ccc(OC)cc2)c1	?	?
O=C(CCC1CCN(Cc2ccccc2)CC1)c1ccc2c(c1)NCCCC2	/	-18%

# Copied from the list:
# HTT prom inh, CC1CCN(c2nc(-c3ccc(C(C)(C)C)cc3)nc3ccccc23)CC1 → -39%
# HTT prom inh, O=C(CCC1CCN(Cc2ccccc2)CC1)c1ccc2c(c1)NCCCC2 → -18%
# HTT prom inh, CCOC(=O)c1c(C)[nH]c(C)c1S(=O)(=O)N(C)CC(=O)N1CCN(c2ccccc2)CC1 → -15%

# (further entries)
SMILES	PMP22 txn	HTT prom inh
O=C(c1ccccc1Cl)n1nc(-c2ccco2)nc1NCc1cccs1	-9%	7%
O=C(CN1CCCN(Cc2ccc(F)cc2)S1(=O)=O)NCc1ccccc1Cl	-24%	-19%
CCOC(=O)c1c(C)[nH]c(CCC(=O)NCc2ccccc2Cl)c1C	-26%	-28%
CCN1CCN(C(=O)c2cnn(-c3cccc(Cl)c3)c2C2CCN(C(=O)OC(C)(C)C)CC2)CC1	-10%	-11%
CCOC(=O)C1=C(C)N=C2SCCC(=O)N2C1c1ccc(OCc2ccccc2)cc1 (centres undefined)	-12%	-28%
CN(C(=O)c1cc2c(=O)oc3ccccc3c2s1)c1ccc(F)cc1	?	-7%
COc1cc(NC(=O)COCc2cc(-c3ccc4c(c3)OCO4)on2)c(OC)cc1Cl	13%	-9%
COc1cccc(NC(=O)CSc2nnc3scc(-c4ccc(Cl)cc4)n23)c1	?	?
CCCCOC(=O)c1ccc(NC(=O)c2csnn2)cc1	-5%	4%
CCOc1ccccc1NC(=O)Nc1nnc(N2CCCCCC2)s1	-9%	-9%
Fc1ccc(-n2nc(-c3ccccc3)c3cnc4ccccc4c32)cc1Cl	-11%	13%
CCCOC(=O)CSc1nnc(-c2ccccc2)o1	4%	-7%
CN(c1ncnc2c1c(-c1ccccc1)cn2-c1cccc(Cl)c1)C1CCCCC1	?	-27%
Cc1ccc2oc(=O)c3cc(C(=O)N4CCN(c5ccccc5)CC4)sc3c2c1	-7%	5%
CC(=O)[C@@]1(O)CC[C@H]2[C@@H]3C[C@H](C)C4=CC(=O)CC[C@]4(C)[C@H]3CC[C@@]21C	/	-12%
CCOC(=O)c1c(C)[nH]c(CCC(=O)Nc2ccc(Cl)cc2C)c1C	-26%	-5%
Cc1cn2c(=O)c(S(=O)(=O)NCc3ccc(F)cc3)c(C)nc2s1	5%	-2%
COc1cc(NC(=O)C(CCS(C)(=O)=O)N2Cc3ccccc3C2=O)cc(OC)c1OC (centres undefined)	11%	-20%
COc1cc(OC)c(NC(=O)c2ccc(-n3cnc4cccnc43)cc2)cc1Cl	-4%	-25%
CCc1ccc(NC(=O)Cn2c(=O)n(Cc3ccco3)c(=O)c3oc4ccccc4c32)cc1	?	-2%
COc1ccc(-c2csc3nc(-c4ccccc4C)oc(=O)c23)cc1OC	-33%	-10%
COc1ccc(OC)c(NC(=O)c2c(NCc3ccc(N(C)C)cc3)sc3c2CCCC3)c1	?	?
Cc1ccc(CNC(=O)Cn2nc(C)n3cccc3c2=O)cc1	-7%	2%
COc1ccccc1N1CCN(c2ncnc3c2c(-c2ccccc2)cn3-c2cccc(C)c2)CC1	0%	-21%
Fc1ccc(-n2ncc3c(N4CCN(c5ccccc5F)CC4)ncnc32)cc1	8%	-25%
COc1cccc(CNC(=O)CCn2c(=O)c3cccn3c3cccnc32)c1OC	-18%	3%
Cc1ccc(-c2ncn(-c3ccc(Nc4nccc(-c5cccc(N6CCOCC6)c5)n4)cc3)n2)cn1	/	69%[activator]
Cc1cc(C)c(/C=C2\C(=O)Nc3ccccc32)[nH]1	/	7%
Cc1ccccc1NC(=O)Cn1c(=O)n(CCCCCC(=O)NCc2ccccc2Cl)c(=O)c2sccc21	?	-12%
CCN(c1cccc(C)c1)S(=O)(=O)c1ccc2c(c1)NC(=O)CCS2	?	-15%
O=C1NC(O)CCN1[C@@H]1O[C@H](CO)[C@H](O)[C@H]1O (some centres undefined)	/	2%
CCC(C)c1ccc(OCC(=O)Nc2ccc(-c3nc4ncccc4o3)cc2)cc1 (centres undefined)	-47%	37%[activator]
COc1ccccc1N1CCN(C(=O)c2cnn(-c3ccc(C)c(C)c3)c2C2CCN(C(=O)OC(C)(C)C)CC2)CC1	?	?
COc1ccc(OC)c(CNc2sc3c(c2C(=O)Nc2cc(OC)ccc2OC)CCCC3)c1	?	?
COc1ccc(Cl)cc1C(=O)Nc1ccc2oc(-c3ccc(C(C)(C)C)cc3)nc2c1	2%	-3%
Cc1ccc(Cl)c(NC(=O)Nc2csc3c2CCCC3)c1	-5%	15%
CC(C)CN(CC(C)C)S(=O)(=O)c1ccc(C(=O)Nc2sc3c(c2C(N)=O)CC(C)(C)NC3(C)C)cc1	?	?
CCC(C)NC(=O)Cn1ncc2c([nH]c3ccc(C)cc32)c1=O (centres undefined)	1%	-17%
Cc1nc(-c2ccccc2)sc1-c1ccc(SCC(=O)NCc2ccccc2Cl)nn1	?	13%
COc1ccc(CNc2nc3c(-c4cccc(F)c4)nnn3c3ccccc23)cc1	?	33%[activator]

# Hits appear at their usual frequency, and some 2.6% of all compounds hit somewhere here.
